Screening results deposited in PubChem by Broad Institute.
Vaccinia stage: Vaccinia orthopox stage-specific inhibition; AID 1053133; Vaccinia-infected cells, mCherry/Venus stage reporter fluorescence; active compounds read low; some inactives read as strong as hits; activity change (mCherry), % (no concentration beside the values); 89,000 compounds, 0.01% hits;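 active means mCherry past -33% and 40 or more points under the early reporter, replicates agreeing; inconclusive means past -33% without that gap or agreement; tested in A549 cells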;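 further: scaled between vehicle wells and reference inhibitor wells; 23 nL library stock went into each well; one replicate is shown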
Vaccinia stage Venus: second read-out of Vaccinia stage, no call of its own (marks repeat the call); activity change (Venus), %; measured here: Venus reporter, other viral stage;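 negative = less Venus signal; first of two replicates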
An asterisk follows results filed as active; ? = inconclusive; . = not tested or not shown; & = joins results of further samples. Only part of the results is shown; rates above refer to the full screens.

SMILES | Vaccinia stage | Vaccinia stage Venus
CO[C@H]1CN(C)C(=O)c2cc(NS(=O)(=O)c3ccccc3F)ccc2OC[C@@H](C)NC[C@H]1C | 11.8 | 13.1
CN1CCN(C(=O)C[C@@H]2CC[C@H]3[C@@H](COc4ccc(NC(=O)C5CCC5)cc4C(=O)N3C)O2)CC1 | 16.0 | 10.3
C[C@@H]1CN([C@H](C)CO)C(=O)c2cc(NC(=O)Nc3ccc(C(F)(F)F)cc3)ccc2O[C@@H](C)CCCCO[C@H]1CN(C)C(=O)Nc1ccc(F)cc1 | -17.8 | -5.1
C[C@@H]1CN([C@H](C)CO)C(=O)c2cc(NC(=O)NC3CCCCC3)ccc2O[C@@H]1CN(C)S(C)(=O)=O | -4.2 | -1.9
C[C@H](NC(=O)C[C@H]1C[C@H]2c3cc(NC(=O)CC4CC4)ccc3O[C@H]2[C@H](CO)O1)c1ccccc1 | 13.4 | 15.7
CN1C(=O)c2cc(NC(=O)c3cscn3)ccc2OC[C@@H]2O[C@@H](CC(=O)N3CCOCC3)CC[C@H]21 | -2.6 | -2.1
CC(C)NC(=O)N1[C@H](CO)[C@H](c2ccc(C#CC3CC3)cc2)[C@@H]1C#N | 7.0 | 1.5
C[C@H]1CN([C@@H](C)CO)C(=O)c2cc(NC(=O)CCCN(C)C)ccc2O[C@H]1CN(C)CC1CC1 | -7.4 | 0.5
C[C@H]1CN([C@@H](C)CO)S(=O)(=O)c2ccc(-c3ccncc3)cc2O[C@@H]1CN(C)Cc1cccnc1 | 2.6 | 0.7
C[C@@H]1CCCCO[C@H](CN(C)Cc2ccncc2)[C@H](C)CN([C@@H](C)CO)C(=O)c2cc(NS(=O)(=O)c3ccc(Cl)cc3)ccc2O1 | -32.4 | -29.9
C[C@@H]1CN([C@H](C)CO)C(=O)c2cc(NC(=O)CCN3CCOCC3)ccc2O[C@H]1CN(C)C(=O)Nc1ccc(F)cc1 | 0.2 | -0.2
C[C@@H]1CCCCO[C@H](CN(C)C(=O)Nc2ccccc2)[C@@H](C)CN([C@H](C)CO)C(=O)c2cc(NC(=O)c3ccccc3)ccc2O1 | 19.8 | 8.4
N#C[C@H]1[C@@H](c2ccccc2C2=CCCCC2)[C@@H](CO)N1C(=O)CN1CCOCC1 | -2.1 | 2.8
CC(C)NC(=O)N(C)C[C@@H]1Oc2ccc(NC(=O)C3CCCCC3)cc2CC(=O)N([C@@H](C)CO)C[C@H]1C | 7.4 | 11.6
COc1ccccc1C#Cc1ccc2c(c1)O[C@H](CN(C)Cc1ccncc1)[C@@H](C)CN([C@@H](C)CO)S2(=O)=O | -14.5 | -6.7
COCC(=O)N(C)C[C@H]1[C@H](c2ccc(-c3ccccc3)cc2)[C@H](CO)N1C(C)=O | 0.7 | -0.9
Cc1noc(C)c1S(=O)(=O)Nc1ccc2c(c1)C(=O)N([C@H](C)CO)C[C@H](C)[C@H](CN(C)Cc1ccccc1)O2 | 12.6 | 8.8
CS(=O)(=O)Nc1ccc2c(c1)[C@H]1C[C@H](CC(=O)N3CCc4ccccc4C3)O[C@H](CO)[C@H]1O2 | 1.2 | 0.4
COc1ccc2c3c([nH]c2c1)[C@H](CO)N(Cc1nccs1)CC31CCN(Cc2cccnc2)CC1 | 6.5 | 0.4
O=C(Nc1ccc(C(F)(F)F)cc1)N1[C@@H]2CNC[C@H]1C2c1ccc(-c2ccncc2)cc1 (stereo partly drawn) | 5.4&-28.5 | -7.0&-24.1
O=C(c1ccccn1)N1CC(=O)N2[C@@H](CO)[C@H](c3ccc(C#Cc4ccccc4)cc3)[C@@H]2C1 | 8.1 | -7.7
O=C(C[C@@H]1CC[C@H](NC(=O)NC2CCCCC2)[C@H](CO)O1)NCc1ccc(F)cc1 | -6.2 | 3.0
O=C(N[C@@H]1CC[C@@H](CCNC(=O)c2ccccc2F)O[C@H]1CO)c1cnccn1 | -8.1 | -1.3
COc1cccc(-c2ccc3c(c2)[C@H]2[C@H](CCN2S(=O)(=O)c2ccccc2F)[C@H](CO)N3)c1 | ? | .
O=S(=O)(N[C@@H]1CC[C@H](CCn2cc(-c3ccccn3)nn2)O[C@H]1CO)c1cccc(Cl)c1 | -11.4 | -3.5
Going on with the list:
SMILES | Vaccinia stage | Vaccinia stage Venus
CC=Cc1ccc2n(c1=O)C[C@@H]1[C@@H](CO)[C@H](C(=O)N[C@H](C)c3ccccc3)[C@H]2N1Cc1cccnc1 (mixture of isomers) | -2.7 | 0.2
COCC(=O)N1CC[C@@H]2[C@H]1c1cc(-c3ccc(OC)cc3)ccc1N(C)[C@H]2CO | -5.5 | -14.4
COc1ccc(CN(C)C[C@H]2OCCCC[C@@H](C)Oc3ccc(NC(=O)Nc4c(C)noc4C)cc3C(=O)N([C@@H](C)CO)C[C@H]2C)cc1 | 13.4 | 2.7
C[C@@H]1CN([C@@H](C)CO)C(=O)c2cc(NC(=O)Cc3ccccc3)ccc2O[C@@H](C)CCCCO[C@@H]1CN(C)S(=O)(=O)c1ccccc1 | 0.3 | -1.9
COc1ccc(NC(=O)Nc2ccc3c(c2)C(=O)N([C@@H](C)CO)C[C@@H](C)[C@@H](CN(C)C(=O)Nc2ccc(OC)cc2)O3)cc1 | 0.8 | 0.0
CO[C@@H]1CN(C)C(=O)c2ccc(NC(=O)c3ccc(F)cc3)cc2OC[C@@H](C)N(C)C[C@H]1C | 11.8 | 3.8
CNC[C@H]1Oc2ccc(NC(=O)Nc3ccc4c(c3)OCO4)cc2C(=O)N([C@@H](C)CO)C[C@H]1C | 4.2 | 2.2
O=C(C1CCOCC1)N1CC(=O)N2[C@H](CO)[C@@H](c3ccc(C#CCc4ccccc4)cc3)[C@H]2C1 | 6.2 | 3.5
C[C@H]1CN([C@@H](C)CO)C(=O)c2cc(-c3cccnc3)cnc2O[C@@H]1CN(C)Cc1ccc(-c2ccccc2)cc1 | ? | .
CN(C)C(=O)c1cccc(-c2ccc([C@@H]3[C@@H](CO)N(C(=O)C4CC4)[C@H]3C#N)cc2)c1 | 9.2 | 2.1
CCC(=O)N1CC(=O)N2[C@@H](CO)[C@H](c3ccc(-c4cccnc4)cc3)[C@@H]2C1 | 25.6 | 15.5
O=C(Nc1cccc(F)c1)N1CC(=O)N2[C@H](CO)[C@@H](c3ccc(Br)cc3)[C@@H]2C1 | -27.5 | -39.0
COc1cccc(C#Cc2ccc([C@H]3[C@H](CO)N4C(=O)CN(C(C)=O)C[C@@H]34)cc2)c1 | -1.7 | -1.2
O=C(C[C@@H]1CC[C@@H]2[C@H](COC[C@H](O)CN2C(=O)Cc2ccccc2)O1)NC1CCCC1 | -2.8 | 4.1
COc1ccc(-c2ccccc2[C@@H]2[C@H](C#N)N(C(=O)C3CCC3)[C@H]2CO)cc1 | 3.9 | -0.1
CCC(=O)N1CC(=O)N2[C@H](CO)[C@@H](c3ccc(C#CCc4ccccc4)cc3)[C@@H]2C1 | 14.8 | 4.0
C[C@H]1CN([C@@H](C)CO)S(=O)(=O)c2ccc(-c3cccnc3)cc2O[C@@H]1CN(C)C(=O)NC1CCCCC1 | 17.2 | 12.7
CCC(=O)N1[C@H](C(=O)NC2CCC2)[C@@H](CO)[C@@H]2Cn3c(ccc(-c4ccc(F)cc4)c3=O)[C@@H]21 | -2.9 | 12.8
CNC[C@@H]1Oc2ncc(C#CCC3CCCC3)cc2C(=O)N([C@H](C)CO)C[C@@H]1C | -18.6 | -18.9
Cc1ccc(S(=O)(=O)N(C)C[C@H]2OCCCC[C@H](C)Oc3ccc(NS(=O)(=O)c4cn(C)cn4)cc3C(=O)N([C@H](C)CO)C[C@H]2C)cc1 | 18.4 | 7.5
COc1ccccc1CN1[C@H](CO)[C@H]2c3ccccc3N(C(=O)C3CCCC3)C[C@H]21 | -17.0 | 2.4
COc1ccc2c3c([nH]c2c1)[C@H](CO)N(Cc1cccc(Cl)c1)CC31CN(C(C)=O)C1 | 9.3 | 8.7
O=C(NCC[C@H]1CC[C@@H](NC(=O)c2ccc3c(c2)OCO3)[C@H](CO)O1)Nc1cc(F)ccc1F | -10.3 | -7.9
C[C@@H]1CCCCO[C@H](CN(C)C(=O)CCCN(C)C)[C@H](C)CN([C@@H](C)CO)C(=O)c2cc(NC(=O)NC3CCCCC3)ccc2O1 | 10.6 | 9.0
C[C@@H]1CN([C@H](C)CO)C(=O)c2cc(NC(=O)Nc3ccccc3)ccc2O[C@@H]1CN(C)C(=O)Nc1ccc(F)cc1 | 22.0 | 11.0

An excerpt from above in order of formula weight, descending.
SMILES | Vaccinia stage | Vaccinia stage Venus
COc1ccc2c3c([nH]c2c1)[C@H](CO)N(Cc1cccc(Cl)c1)CC31CN(C(C)=O)C1 | 9.3 | 8.7
O=C(C[C@@H]1CC[C@@H]2[C@H](COC[C@H](O)CN2C(=O)Cc2ccccc2)O1)NC1CCCC1 | -2.8 | 4.1
CNC[C@@H]1Oc2ncc(C#CCC3CCCC3)cc2C(=O)N([C@H](C)CO)C[C@@H]1C | -18.6 | -18.9

(list continues)
SMILES | Vaccinia stage | Vaccinia stage Venus
COCC#Cc1ccc2c(c1)O[C@H](CN(C)Cc1ccccc1F)[C@@H](C)CN([C@@H](C)CO)S2(=O)=O | ? | .
CO[C@@H]1CN(C)C(=O)c2ccc(NC(C)=O)cc2OC[C@H](C)N(CCc2ccccc2)C[C@@H]1C | -8.1 | 0.5
CCCC#Cc1ccc([C@@H]2[C@@H](C#N)N(S(C)(=O)=O)[C@H]2CO)cc1 | 5.5 | 6.7
CO[C@H]1CN(C)C(=O)c2cc(NC(=O)c3ccccc3)ccc2OC[C@@H](C)N(C(C)=O)C[C@H]1C | -4.0 | -5.7
Cc1ccc(S(=O)(=O)N(C)C[C@@H]2Oc3ccc(NC(=O)C4CCCCC4)cc3C(=O)N([C@H](C)CO)C[C@@H]2C)cc1 | -4.5 | 2.9
C[C@@H]1CN([C@H](C)CO)C(=O)c2cc(NC(=O)Cn3cnnn3)ccc2O[C@H]1CN(C)Cc1ccc(-c2ccccc2)cc1 | 3.3 | -1.6
O=C(N[C@@H]1CC[C@@H](CCn2cc(-c3ccccn3)nn2)O[C@H]1CO)c1ccc(F)cc1 | -0.1 | -1.9
CCCNC(=O)C[C@@H]1CC[C@@H]2[C@H](COc3ccc(NC(=O)c4cc(C)on4)cc3C(=O)N2C)O1 | -5.9 | -3.6
C[C@H](CO)N1C[C@H](C)[C@H](CN(C)C(=O)Nc2cccc3ccccc23)Oc2c(NC(=O)C3CC3)cccc2C1=O | 20.4 | 19.8
COc1ccc2c3c([nH]c2c1)[C@@H](CO)N(C(C)=O)CC31CN(C(=O)c2ccc3c(c2)OCO3)C1 | 18.2 | 17.6
COCC(=O)N1CC(=O)N2[C@H](C1)[C@H](c1ccc(C#Cc3cccnc3)cc1)[C@@H]2CO | 10.6 | 0.0
C[C@H](CO)N1C[C@H](C)[C@@H](CN(C)S(=O)(=O)c2ccc(F)cc2)Oc2ccc(NC(=O)Nc3ccc(C(F)(F)F)cc3)cc2C1=O | ? | .
C[C@@H]1CN([C@@H](C)CO)C(=O)c2cc(NC(=O)Nc3ccc(C(F)(F)F)cc3)ccc2O[C@H]1CN(C)S(=O)(=O)c1ccccc1 | ? | .
C#CCNC(=O)C1=C[C@@H](c2csc3ccccc23)[C@H](CCCO)[C@@H](OCC)O1 | -7.5 | -5.4
C[C@H]1CN([C@@H](C)CO)C(=O)Cc2cc(NC(=O)Cc3cn(C)c4ccccc34)ccc2O[C@@H]1CN(C)C(=O)NC1CCCCC1 | 22.4 | 13.8
CCCC#Cc1ccc2c(c1)O[C@H](CN(C)C(=O)COC)[C@H](C)CN([C@@H](C)CO)S2(=O)=O | 8.2 | -5.7
COc1ccc2c3c([nH]c2c1)[C@@H](CO)N(C(=O)c1ccccn1)CC31CN(C(=O)C2CCCC2)C1 | 6.7 | 3.6
CC(C)NC(=O)N1[C@@H](CO)[C@@H]2c3ccccc3N(C(=O)Nc3ccc(F)cc3)C[C@@H]21 | 2.0 | 0.1
CCNC(=O)Nc1ccc2c(c1)C(=O)N(C)[C@@H]1CC[C@H](CC(=O)N[C@H](C)c3ccccc3)O[C@@H]1CO2 | 4.1 | 2.3
COc1ccc(CN(C)C[C@H]2Oc3ccc(NC(=O)NC(C)C)cc3C(=O)N([C@@H](C)CO)C[C@@H]2C)cc1 | 4.8 | 3.5
Cc1ccc(S(=O)(=O)N(C)C[C@H]2Oc3c(NS(C)(=O)=O)cccc3C(=O)N([C@H](C)CO)C[C@H]2C)cc1 | 7.6 | 5.7
Cc1cc(C(=O)Nc2cccc3c2O[C@H](CN(C)Cc2ccc(C(F)(F)F)cc2)[C@@H](C)CN([C@H](C)CO)C3=O)n(C)n1 | -12.3 | 0.7
C[C@H](CO)N1C[C@H](C)[C@@H](CN(C)Cc2cccc(C(=O)O)c2)Oc2cc(C3=CCCC3)ccc2S1(=O)=O | -0.2 | -10.3
Cc1ccccc1S(=O)(=O)N[C@H]1CC[C@@H](CCn2cc(-c3ccc(F)cc3)nn2)O[C@@H]1CO | -20.3 | -18.6

Quoted from the listing:
Value of CCCNC(=O)C[C@@H]1CC[C@@H]2[C@H](COc3ccc(NC(=O)c4cc(C)on4)cc3C(=O)N2C)O1 in Vaccinia stage Venus: -3.6
Value of CC(C)NC(=O)N1[C@@H](CO)[C@@H]2c3ccccc3N(C(=O)Nc3ccc(F)cc3)C[C@@H]21 in Vaccinia stage: 2.0
Value of C#CCNC(=O)C1=C[C@@H](c2csc3ccccc23)[C@H](CCCO)[C@@H](OCC)O1 in Vaccinia stage Venus: -5.4
Value of COCC(=O)N1CC(=O)N2[C@H](C1)[C@H](c1ccc(C#Cc3cccnc3)cc1)[C@@H]2CO in Vaccinia stage Venus: 0.0

In another format: 3 of the compounds above
Results follow in this order: Vaccinia stage, Vaccinia stage Venus
> CCCNC(=O)C[C@@H]1CC[C@@H]2[C@H](COc3ccc(NC(=O)c4cc(C)on4)cc3C(=O)N2C)O1
 : -5.9, -3.6
> C[C@H](CO)N1C[C@H](C)[C@H](CN(C)C(=O)Nc2cccc3ccccc23)Oc2c(NC(=O)C3CC3)cccc2C1=O
 : 20.4, 19.8
> COc1ccc2c3c([nH]c2c1)[C@@H](CO)N(C(C)=O)CC31CN(C(=O)c2ccc3c(c2)OCO3)C1
 : 18.2, 17.6
